Compound activity from PubChem.
KCNQ2 block: KCNQ2 potassium channel inhibitors, primary screen, cell-based, CHO-K1, FluxOR thallium flux, B-score (AID 2156); O88943; actives 1.1% (n = 310,000); B-score at 10 µM; 20 min; stronger effect = lower value; only compounds with negative scores are shown here; some inactives read as strong as hits;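 active = fluorescence ratio B-score at most minus 3 library SDs, with starting brightness B-score within 2 library SDs, cut at about -5.5 in these data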
Target sequence (O88943 whole entry, looked up): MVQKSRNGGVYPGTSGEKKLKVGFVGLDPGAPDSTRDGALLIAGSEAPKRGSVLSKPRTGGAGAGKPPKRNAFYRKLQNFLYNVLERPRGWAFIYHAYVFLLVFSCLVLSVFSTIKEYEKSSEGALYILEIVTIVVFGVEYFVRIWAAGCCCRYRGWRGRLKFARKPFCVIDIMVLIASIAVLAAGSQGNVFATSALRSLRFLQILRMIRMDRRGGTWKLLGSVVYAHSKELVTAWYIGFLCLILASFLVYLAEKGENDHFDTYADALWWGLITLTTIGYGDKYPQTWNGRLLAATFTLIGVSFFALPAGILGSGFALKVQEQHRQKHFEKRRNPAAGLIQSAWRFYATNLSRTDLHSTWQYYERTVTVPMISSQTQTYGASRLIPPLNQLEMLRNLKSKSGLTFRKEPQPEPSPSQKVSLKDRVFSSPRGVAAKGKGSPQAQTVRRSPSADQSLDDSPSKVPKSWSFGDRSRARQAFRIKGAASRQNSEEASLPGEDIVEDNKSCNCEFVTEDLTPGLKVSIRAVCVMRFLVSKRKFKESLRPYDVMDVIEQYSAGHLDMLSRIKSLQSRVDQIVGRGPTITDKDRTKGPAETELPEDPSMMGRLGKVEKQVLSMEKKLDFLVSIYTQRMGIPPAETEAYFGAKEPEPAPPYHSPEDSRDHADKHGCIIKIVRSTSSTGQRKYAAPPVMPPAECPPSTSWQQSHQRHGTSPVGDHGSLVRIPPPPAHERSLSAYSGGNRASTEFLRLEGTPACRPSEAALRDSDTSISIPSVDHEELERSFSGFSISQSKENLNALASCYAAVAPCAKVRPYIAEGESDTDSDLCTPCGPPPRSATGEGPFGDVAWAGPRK
KCNQ2 block baseline: recorded beside KCNQ2 block, whose call it bears; B-score; measured here: initial fluorescence intensity artifact check;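 brightness before thallium and not channel activity; 0 = typical well and far values either way flag optical interference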
* = called active by the depositor; i = inactive. A portion of the library; the hit share may differ from the screen's.

SMILES	KCNQ2 block	KCNQ2 block baseline
Cc1cc2c(cc1C)NC1=C(N2)OC(c2cccc(O)c2)C1=O (stereo unspecified)	i	-2.4
COc1ccc(CC(=O)O/N=C(\N)Cc2cccc3ccccc23)cc1	i	-0.71
CCCCC(=O)Nc1nc(-c2ccc(S(=O)(=O)N3CCOCC3)cc2)cs1	i	0.86
O=C(O)CCn1c(Cc2ccccc2)nc2ccccc21	i	0.86
CCCCOC(=O)NC(NCC(O)c1ccccc1)(C(F)(F)F)C(F)(F)F (stereo unspecified)	i	0.56
CC1CCCN(Cc2c(O)ccc3c(=O)c(-c4nc5ccccc5s4)c(N)oc23)C1 (stereo unspecified)	i	-0.37
c1ccc(-c2cnnc(N3CCOCC3)n2)cc1	i	0.02
Cc1ccc2nsnc2c1NC(=O)c1ccc([N+](=O)[O-])cc1	i	0.65
Cn1c(=O)c(=O)n(C)c2cc(S(=O)(=O)N3CC(=O)N(CCc4ccccc4)C(=O)C3)ccc21	i	-0.81
CCN1c2cccc3cccc(c23)S1(=O)=O	i	1.1
O=C(Nc1ccc(F)cc1)c1cncs1	i	-0.81
COc1cc(C(=O)Nc2ccc(-c3nc4cc(C)ccc4o3)c(O)c2)cc(OC)c1OC	i	-0.01
COc1cc2cc(CN(CCCN3CCOCC3)C(=O)Nc3ccc(F)cc3)c(=O)[nH]c2cc1OC	i	0.56
CCOC(=O)c1ccc(-n2c(CCC(=O)O)ccc2-c2ccc(F)cc2)cc1	i	1.5
O=[N+]([O-])c1cc(Cl)ccc1-c1nc(-c2ccccc2)no1	i	2.5
Cc1[nH]c2ccccc2c1C(=O)COC(=O)C(C)C	i	1.5
O=C(O)CCc1ccc(-c2ccccc2)n1-c1cccc(O)c1	i	1.5
C/C(Cn1nnc([N+](=O)[O-])n1)=N\NC(=O)c1ccncc1	i	-1.4
C#CCn1c(O)c(N=NC(=O)C(O)c2ccccc2)c2ccccc21 (stereo unspecified)	i	0.33
O=[N+]([O-])c1ccc(N/N=C/c2ccc(OCc3cccc4ccccc34)cc2)nc1	i	0.74
C[C@@H](C(=O)NCC1CC1)[C@H]1C[C@]1(C)[C@H](NC(=O)OCc1ccccc1)c1ccccc1	i	0.92
CN([C@@H](C(=O)OC(C)(C)C)c1ccccc1)S(=O)(=O)c1cccc(S(=O)(=O)N(C)[C@@H](C(=O)OC(C)(C)C)c2ccccc2)c1	i	-0.85
COc1ccc(CN2CCNC(=O)C2CC(=O)N(C)CCC2CCOCC2)c(OC)c1 (stereo unspecified)	i	0.09
CN(C)C(=O)c1cn(-c2ccccc2)nc1-c1cccc([N+](=O)[O-])c1	i	2.6
CCOCCOC(=O)C1=C(C)NC2=C(C(=O)CC(c3cccs3)C2)C1c1ccsc1 (stereo unspecified)	i	-0.03
COc1ccc(CC(=O)N2CCc3cc(OC)c(OC)cc3C2O)cc1OC (stereo unspecified)	i	0.18
Cc1[nH]c2ccccc2c1C(=O)C(C)OC(=O)c1ccc(Cl)nc1 (stereo unspecified)	i	-1.2
CC(Oc1ccccc1)C(=O)Nc1c2c(nn1-c1ccccc1)CS(=O)C2 (stereo unspecified)	i	0.35
Cc1cccc(N=C2Sc3nc4c(C)c(C)ccc4cc3CN2CCN2CCOCC2)c1	i	-2.9
CCOC(=O)C1CCN(C(=O)C(C)Sc2ccc(Cl)cc2)CC1 (stereo unspecified)	i	1.8
CC(=O)c1ccc(N2C(=NC(=O)C3CCCCC3)SC3CS(=O)(=O)CC32)cc1 (stereo unspecified)	i	-1
CCNC(=O)Cn1cc(C(F)(F)F)cc(Cl)c1=O	i	-1.1
CCCOc1ccccc1/C=C1/C(=O)ON=C1C	i	-0.12
O=C(NCc1ccc2c(c1)OCO2)C1CCC(CNc2c(N3CCCCC3)c(=O)c2=O)CC1 (stereo unspecified)	i	-0.34
COc1ccc(/C=N/OCC(=O)NC(c2ccccc2)c2ccccc2)c(OC)c1	i	0.28
Cc1ccc(C)c(NC(=S)NC(C)C(c2ccccc2)N2CCN(C)CC2)c1 (stereo unspecified)	i	0.02
CCC(C(=O)OCC(=O)Nc1cc(Cl)ccc1Cl)c1ccccc1 (stereo unspecified)	i	-2
CCOc1ccccc1N1CC(C(=O)N(CC)CC(=O)Nc2ccc3c(c2)OCCO3)CC1=O (stereo unspecified)	i	-0.13
COc1ccccc1N1CCN(C(=O)c2cc(-c3ccc(F)cc3)[nH]c2C)CC1	i	0.3
O=C(NCc1cccs1)C1CCN(S(=O)(=O)c2ccccc2F)CC1	i	-0.81
O=C(COC(=O)c1cccc([N+](=O)[O-])c1)NCc1cccs1	i	-0.41
CCCc1cc(=O)[nH]c(SCC(=O)Nc2c(C)cccc2C)n1	i	-0.03
Nc1nc(-c2ccccc2)c(N=Nc2ccc(Cl)cc2)s1	i	-2.3
O=C(N/N=C\c1cc(Br)cs1)C1COc2ccccc2O1 (stereo unspecified)	i	1.8
CCc1cccc2c(C(=O)COC(=O)/C=C/c3ccc(O)c(OC)c3)c[nH]c12	i	-0.94
COc1ccc(N2C(S)=C(C#N)C(=O)NC2c2ccc(OC)c(OC)c2)cc1 (stereo unspecified)	i	-0.76
COC(=O)c1[nH]c2cccc(Cl)c2c1NC(=O)CN1CCN(CCO)CC1	i	0.08
COc1ccc(C2SCCN2S(=O)(=O)c2ccc(NC(C)=O)cc2)cc1 (stereo unspecified)	i	-0.04

In the list so far, these contain four or more nitrogen atoms:
SMILES	KCNQ2 block	KCNQ2 block baseline
c1ccc(-c2cnnc(N3CCOCC3)n2)cc1	i	0.02
Cc1ccc2nsnc2c1NC(=O)c1ccc([N+](=O)[O-])cc1	i	0.65
Cn1c(=O)c(=O)n(C)c2cc(S(=O)(=O)N3CC(=O)N(CCc4ccccc4)C(=O)C3)ccc21	i	-0.81
COc1cc2cc(CN(CCCN3CCOCC3)C(=O)Nc3ccc(F)cc3)c(=O)[nH]c2cc1OC	i	0.56
C/C(Cn1nnc([N+](=O)[O-])n1)=N\NC(=O)c1ccncc1	i	-1.4
O=[N+]([O-])c1ccc(N/N=C/c2ccc(OCc3cccc4ccccc34)cc2)nc1	i	0.74
CN(C)C(=O)c1cn(-c2ccccc2)nc1-c1cccc([N+](=O)[O-])c1	i	2.6
Cc1cccc(N=C2Sc3nc4c(C)c(C)ccc4cc3CN2CCN2CCOCC2)c1	i	-2.9
Cc1ccc(C)c(NC(=S)NC(C)C(c2ccccc2)N2CCN(C)CC2)c1 (stereo unspecified)	i	0.02
Nc1nc(-c2ccccc2)c(N=Nc2ccc(Cl)cc2)s1	i	-2.3
COC(=O)c1[nH]c2cccc(Cl)c2c1NC(=O)CN1CCN(CCO)CC1	i	0.08

The list goes on.
SMILES	KCNQ2 block	KCNQ2 block baseline
COc1ccc(C2=NN(c3nc(-c4ccc(CNC(C)=O)cc4)cs3)C(c3ccco3)C2)cc1 (stereo unspecified)	i	0.04
CN(C)C(CNC(=O)CN1C(=O)NC2(CCc3ccccc32)C1=O)c1ccco1 (stereo unspecified)	i	0.27
Cc1cccc(-c2oc3ccc(-c4ccc5c(c4)OCO5)cc3c2-c2ccc(OC3CCCCO3)cc2)c1 (stereo unspecified)	i	-2.9
COc1ccccc1NC1=Nc2cccc3cccc1c23	i	0.84
O=C(Cc1ccsc1)N1CCc2c([nH]c3ccccc23)C1c1ccccn1 (stereo unspecified)	i	0.26
c1ccc(C2=Nn3c(nnc3-c3cccnc3)SC2)cc1	i	0.94
O=C(Nc1c2c(nn1-c1ccc(F)cc1)CS(=O)C2)c1ccc2c(c1)OCO2 (stereo unspecified)	i	-0.82
COc1ccc(OC)c(N=C(C)C2=C(O)COC2=O)c1	i	0.53
CC1(C)C(=O)Nc2ccccc2N1C(=O)COC(=O)/C=C/c1ccc(OC(F)F)cc1	i	0.31
CN(C)c1ccc(NC(=O)c2cc3c(=O)n4ccccc4nc3n2C)cc1	i	1.8
CN(/N=C/c1cc(Br)cc(Br)c1O)c1ccccc1	i	1.2
O=C(Cc1ccccn1)Nc1ccccc1	i	-0.02
CCN(CC)C(=O)c1ccc(S(=O)(=O)Cc2ccc(C)cc2)c([N+](=O)[O-])c1	i	-3.3
Cc1cc(C)n(-c2cc(N3CCN(C(=O)c4cccc(F)c4)CC3)ccc2[N+](=O)[O-])n1	i	-0.01
OCCCN1CCN(CCCOc2ccccc2-c2ccccc2)CC1	i	2.5
CCOC(=O)c1cc(-c2ccccc2)sc1NC(=O)c1cc(OC)c(OC)c(OC)c1	i	-0.85
Cc1ccc(Cl)c(OCC(=O)Nc2cccnc2)c1	i	3.8
CCN(c1ccccc1)S(=O)(=O)c1ccc(Cl)c(NC(=O)COC(=O)c2ccc(Cl)c(N)c2)c1	i	-0.19
OC(COC(c1ccc(Cl)cc1)c1ccc(Cl)cc1)CN1CCc2ccccc2C1 (stereo unspecified)	i	-2.9
CCN(CC)S(=O)(=O)c1cccc(C(=O)NNC(=O)C2=NN(c3ccccc3)C(=O)CC2)c1	i	-0.01
Cc1ccc(C2(C)NC(=O)N(CC(=O)NNC(=O)c3ccoc3C)C2=O)cc1 (stereo unspecified)	i	1.2
COc1cccc(-c2cc(C(=O)NCC3CCCO3)c3cc(Br)cc(C)c3n2)c1 (stereo unspecified)	i	1
Cc1cccc(N2CC(c3nc4ccccc4[nH]3)CC2=O)c1 (stereo unspecified)	i	1
CC(=O)c1ccc2c(c1)C1C=CCC1C(c1cc3c(cc1Br)OCO3)N2 (stereo unspecified)	-7.4*	3.6*
CC(C)Cc1cc(C(=O)NCCCN2CCOCC2)no1	i	0.41
CCc1ccc(CNC(=O)C2CCCN(c3nnc(C)c4c(C)n(-c5ccccc5)nc34)C2)cc1 (stereo unspecified)	i	-0.43
NS(=O)(=O)c1ccc(CCNC(=O)c2ccccc2F)cc1	i	2
COC(=O)C1=C(N)Oc2cc(C)n(CC3CCCO3)c(=O)c2C1c1ccc(Cl)c(Cl)c1 (stereo unspecified)	i	1.5
CC(C)C12CN3CC(C(C)C)(CN(C1)C3c1ccccc1O)C2=O (stereo unspecified)	i	0.08
CCOC(=O)C1=NOC(CNC(=O)C2=NOC(CNC(=O)c3c(-c4ccccc4Cl)noc3C)C2)C1 (stereo unspecified)	i	-0.18
COCCNC(=S)N=Nc1c(O)[nH]c2ccc([N+](=O)[O-])cc12	i	-0.05
CCOC(=O)Cc1csc(NC(=O)CC(C)(C)C)n1	i	1.3
CCC(C)NC(=O)CC(C)C (stereo unspecified)	i	-2.3
O=C(COC(=O)CNC(=O)c1ccccc1)Nc1ccc(S(=O)(=O)N2CCCC2)cc1	i	-0.68
COc1ccc(/C=N/NC(=O)CNC(=O)c2ccc(S(=O)(=O)N3CCOCC3)cc2)cc1OC	i	0.23
O=C(OC(C(=O)NC1CCCCC1)c1ccccc1F)c1ccco1 (stereo unspecified)	i	0.61
CCc1ccc(S(=O)(=O)Nc2ccc(N3CCN(C)CC3)cc2)cc1	i	0.02
CCOC(=O)C1=C(CN2CCN(C(=O)c3ccco3)CC2)NC(=O)NC1c1ccc(F)cc1 (stereo unspecified)	i	-2.6
CCOc1ccc(NC(=O)C2CCN(S(=O)(=O)c3ccc4c(c3)C(C)(C)C(=O)N4C)CC2)cc1	i	-1.6
Cc1noc(C)c1C(=O)Nc1ccc2c(c1)CCC2	i	0.03
Oc1ccc(/C=N/Nc2ccccc2)cc1	i	1.5
Cc1cc(CN(C)C(=O)C2CCC(=O)N(CCc3ccccc3)C2)n[nH]1 (stereo unspecified)	i	0.66
CCOC(=O)Cc1nnc(NC(=O)c2ccccc2OC)s1	i	1.5
CCCc1cc(=O)oc2cc(OCC(=O)NC(Cc3ccc(Cl)cc3)C(=O)O)ccc12 (stereo unspecified)	i	-0.22
COc1ccc(OC)c(NC(=O)CN(C)CC(=O)Nc2ccccc2Cl)c1	i	1.6
CCOC(=O)c1nn(-c2ccccc2)c(=O)c2c(NC(C)=O)scc12	i	0.08
COc1ccc(NC(=S)Nc2ccccn2)c(OC)c1	i	0.8
CCCCOc1ccc(-n2nc(C)cc2C)nn1	i	0.92
COc1cccc(OC)c1NC(=O)C1CCCN1C(=O)Nc1ccccc1Cl (stereo unspecified)	i	0.14
CN1CCN(S(=O)(=O)c2ccc3c(c2)oc(=O)n3C)CC1	i	1.7
Cc1scc(-c2n[nH]c(=S)n2Cc2ccccc2)c1C	i	0.07
Cc1ccc(/C=N/n2c(-c3ccncc3)n[nH]c2=S)o1	i	-0.01
COc1ccc(-c2csc3ncnc(Nc4ccc(O)cc4)c23)cc1	i	-0.41
COc1ccc(CNC(=O)C(C)N(C)Cc2cccc(F)c2)cc1 (stereo unspecified)	i	-1
CC(=O)C1=C(O)C(=O)N(c2ccc(S(=O)(=O)Nc3nccs3)cc2)C1c1ccc([N+](=O)[O-])cc1 (stereo unspecified)	i	2
CCCCCCCCCCOC(=O)Cn1c(COc2ccc(C)cc2)[n+](C)c2ccccc21	i	7.8
COc1ccc(C2C(C(=O)NCCN(C)C)c3ccccc3C(=O)N2C)cc1OC (stereo unspecified)	i	0.54
CCOc1ccc(N=C/C=C/c2ccccc2)c(O)c1	i	-0.94
Cc1ccc(C=C2C(Cl)=C(Cl)C(Cl)=C2Cl)cc1	i	0.48
CCOC(=O)[C@H]1O[C@@H]1C(=O)N[C@@H](CC(C)C)C(=O)NCCC(C)C	i	-1.5
CC(C)CN(C(=O)CCC(=O)OCc1ccc(Cl)cc1Cl)c1c(N)n(CC(C)C)c(=O)[nH]c1=O	i	1.5
CN1CCN(C(=S)NCCc2ccccc2)CC1	i	0.3
